KCNQ2 pot: potentiators of rat KCNQ2 potassium channel. CHO-K1 KCNQ2, FluxOR thallium flux fluorescence; hits give high values. B-score at 10 µM. AID 2239. 310,000 tested, 0.54% active;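 active means fluorescence ratio B-score at least 3 SD of library B-scores, with initial fluorescence B-score within 3 SD, cut at about 5.3 in these data; same plate scores as AID 2156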;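 further: B-score of peak minus minimum over baseline fluorescence ratio after K+ and Tl+ stimulus; positive B-score means potentiation of KCNQ2 with more thallium influx and brighter signal; only the inactives scoring about 0 or higher are listed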
Target sequence (O88943 whole entry, looked up): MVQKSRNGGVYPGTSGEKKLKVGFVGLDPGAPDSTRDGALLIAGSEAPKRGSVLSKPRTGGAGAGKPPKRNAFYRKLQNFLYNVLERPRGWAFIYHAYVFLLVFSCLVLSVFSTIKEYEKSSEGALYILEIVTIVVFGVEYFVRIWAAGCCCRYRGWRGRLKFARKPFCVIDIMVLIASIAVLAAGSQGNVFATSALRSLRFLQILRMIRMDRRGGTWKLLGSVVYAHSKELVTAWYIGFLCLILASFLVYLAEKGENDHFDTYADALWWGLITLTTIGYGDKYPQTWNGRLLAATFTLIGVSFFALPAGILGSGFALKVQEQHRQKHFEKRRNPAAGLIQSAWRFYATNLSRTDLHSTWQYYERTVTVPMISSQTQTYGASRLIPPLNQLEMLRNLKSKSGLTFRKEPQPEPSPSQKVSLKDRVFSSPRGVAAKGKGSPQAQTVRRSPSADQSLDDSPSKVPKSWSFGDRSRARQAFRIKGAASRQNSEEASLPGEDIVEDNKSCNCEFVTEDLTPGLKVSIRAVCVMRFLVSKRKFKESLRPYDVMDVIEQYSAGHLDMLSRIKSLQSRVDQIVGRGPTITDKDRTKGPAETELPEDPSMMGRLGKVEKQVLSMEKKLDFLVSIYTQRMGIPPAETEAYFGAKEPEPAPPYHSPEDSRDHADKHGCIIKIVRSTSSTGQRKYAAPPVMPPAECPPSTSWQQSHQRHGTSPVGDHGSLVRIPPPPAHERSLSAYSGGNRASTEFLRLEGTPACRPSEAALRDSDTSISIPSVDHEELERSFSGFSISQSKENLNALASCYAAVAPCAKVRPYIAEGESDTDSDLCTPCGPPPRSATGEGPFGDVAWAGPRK
KCNQ2 pot baseline: second read-out of KCNQ2 pot, no call of its own (marks repeat the call); B-score; compound at 10 µM; measured here: initial fluorescence intensity artifact check;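 brightness before thallium and not channel activity; 0 = typical well and far values either way flag optical interference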
Active calls of the source: *. These rows are one share of the data; the hit share may differ from the screen's.

Fields: KCNQ2 pot, KCNQ2 pot baseline
- CCC1COCCS(=O)(=O)N1Cc1ccc(C)cc1 (configuration not stated)
 : 1.16, -0.12
- S=C(NCc1cccc(Cl)c1)NC1CCCCC1
 : 8*, -0.61*
- O=C(NCc1ccccn1)c1cccn1-c1ncc(C(F)(F)F)cc1Cl
 : 1.23, -0.57
- N#Cc1nc(-c2ccc(F)cc2)oc1N1CCCCC1
 : 0.09, 0.96
- COc1ccccc1CNC(=O)/C=C/c1ccc(S(=O)(=O)NCc2ccco2)cc1
 : 0.33, -0.63
- CC(C)(C)NS(=O)(=O)c1ccc(NC(=O)C2CCCCC2)cc1
 : 1.05, 0.03
- O=C(NC1CCCC1)c1ccc(CN2CCOCC2)cc1
 : 0.71, 0.05
- CCc1ccc(N2CC(C(=O)N/N=C/c3ccccc3)CC2=O)cc1 (configuration not stated)
 : 0.3, 1.15
- O=C(CSc1ccc2nnc(CCNC(=O)c3ccccc3)n2n1)NCCc1ccccc1
 : 0.66, -0.1
- Cc1ccc(O)c(NC(=O)c2cc(-c3ccccc3Cl)on2)c1
 : 0.2, -0.27
- Cn1c2ccccc2c(=O)c2ccc(C#Cc3ccc(N)cc3)cc21
 : 0.23, 1.53
- COC(=O)C(O)(CC(=O)Nc1ccc(OC)cc1)C(F)(F)F (configuration not stated)
 : 0.15, 1.17
- CCOC(=O)Cc1nnc(NC(=O)Nc2ccccc2)s1
 : 0.3, -0.14
- CCOC(=O)C1C2C=CC3(CN(C4CCCC4)C(=O)C13)O2 (configuration not stated)
 : 0.55, 0.11
- Cc1cc(C)c(C2=NOC3C4CCC(C4)C23)c(C)c1 (configuration not stated)
 : 0.02, -0.08
- CSc1nnc2c3cc(F)ccc3n(C)c2n1
 : 0.78, -0.99
- Cc1ccc(-c2ccc3nnc(SCC(N)=O)n3n2)cc1
 : 0.3, -2.18
- C=CCNC(=O)C1CCC(CNc2nc(=S)[nH]c3ccccc23)CC1 (configuration not stated)
 : 1.27, -0.02
- COc1cccc(NC(=O)CN2C(=O)c3cccnc3Oc3ccc(Cl)cc32)c1
 : 0.17, 0.12
- CN1C2CCC1CC(NC(=O)c1ccc(Cl)cc1)C2 (configuration not stated)
 : 1.89, 0.91
- Cc1nn2c(-c3ccc(Cl)cc3)nnc2s1
 : 0.84, 3.26
- Nc1nc(SCC(=O)Nc2ccc(Br)cc2F)n[nH]1
 : 1.33, -0.38
- COc1ccc(N(CC(=O)O)S(=O)(=O)c2ccc(C)cc2)cc1Cl
 : 0.65, -0.71
- CCCCN1CCN=C1Nc1ccccc1
 : 0.6, -1.46
- Cc1cc2ccccc2n1CCNC(=O)C1CCCCC1
 : 0.6, 1.07
- O=c1[nH]n(Cc2ccccc2)c(=O)c2ccccc12
 : 0.86, -1.25
- O=C(N/N=C/c1cccc(NC(=O)c2ccc(Cl)cc2)c1)c1cccc(O)c1
 : 1.31, -2.09
- CCCS(=O)(=O)Nc1cccc(-c2ccc3nnc(C)n3n2)c1
 : 0.1, 0.74
- O=C(Cn1cnc2c(nnn2Cc2ccc(F)cc2)c1=O)OCc1ccccc1
 : 0.12, -0.13
- N/C(=N\OC(=O)c1ccc([N+](=O)[O-])cc1)c1ccc(Br)cc1
 : 0.48, -0.46

Record cards (already shown).
N#Cc1nc(-c2ccc(F)cc2)oc1N1CCCCC1 in the list: KCNQ2 pot = 0.09; KCNQ2 pot baseline = 0.96
COc1cccc(NC(=O)CN2C(=O)c3cccnc3Oc3ccc(Cl)cc32)c1 in the list: KCNQ2 pot = 0.17; KCNQ2 pot baseline = 0.12
Cc1ccc(O)c(NC(=O)c2cc(-c3ccccc3Cl)on2)c1 in the list: KCNQ2 pot = 0.2; KCNQ2 pot baseline = -0.27

Following part.
Fields: KCNQ2 pot, KCNQ2 pot baseline
- CSCCC(NS(=O)(=O)c1ccc(C)c(C(=O)O)c1)C(=O)O (configuration not stated)
 : 0.06, 0.75
- COCCCNc1nc2ccccc2nc1NS(=O)(=O)c1ccc(F)cc1
 : 0.24, -1.41
- COc1ccc(N2CCN(C(=O)NCc3ccc(OC)c(Cl)c3)CC2)cc1
 : 0.44, -0.44
- COC(=O)COc1ccc(Oc2nc(SC)nc(N(C)C)n2)nn1
 : 1.28, 0.28
- COc1ccc(NC2CCCN(C(=O)c3ccc4nccnc4c3)C2)cc1OC (configuration not stated)
 : 1.74, -0.43
- O=C1/C(=C/c2ccccc2F)SC(=S)N1CCC(=O)N1CCCCC1CCO (configuration not stated)
 : 0.09, 0.5
- COc1ccc(/C=N/NC(=O)c2ccc(COc3ccccc3Cl)o2)c(OC)c1C
 : 0.24, 0.17
- O=S(=O)(N/N=C1\CC(c2ccccc2)Oc2ccccc21)c1ccccc1 (configuration not stated)
 : 0.49, -0.74
- CCN(Cc1ccncc1)C(=O)C(CO)c1ccccc1 (configuration not stated)
 : 1.01, 1.13
- COc1ccccc1C(=O)N/C(=C\c1ccc2c(c1)OCO2)C(=O)NCCc1nc2ccccc2[nH]1
 : 0.08, -1.83
- O=C(Cn1c(=O)cnc2ccccc21)Nc1ccccc1N1CCOCC1
 : 0.37, 0.62
- Cc1cc2ncn(S(=O)(=O)N3CCOCC3)c2cc1C
 : 0.74, 0.2
- COc1ccc(C(C(=O)NC2CCCC2)N(C(=O)CNC(=O)c2ccco2)c2cccnc2)cc1 (configuration not stated)
 : 0.07, 0.8
- CCCN1C(=O)C(NC(C)=O)c2cc(OC)ccc21 (configuration not stated)
 : 0.07, -0.79
- Fc1ccc(Oc2ccc3nnc(C(F)(F)F)n3n2)cc1
 : 1.58, 1.06
- O=Cc1ccc(-c2ccccc2OC(F)(F)F)o1
 : 6.56*, 1.02*
- Nc1cc2nn(-c3ccccc3)nc2cc1Cl
 : 1.3, -0.08
- CCOC(=O)c1ccc(Oc2c(C)oc3c(CN4CCN(C)CC4)c(O)ccc3c2=O)cc1
 : 0.04, 1.11
- NS(=O)(=O)c1ccc(N2N=C(c3ccccc3)CC2c2ccc(F)cc2)cc1 (configuration not stated)
 : 1.84, -0.78
- Cc1ccc(NC(=O)C(=O)NCC2CCCO2)cc1 (configuration not stated)
 : 0.59, 1.02
- COc1ccc(Cn2cc(F)c(=O)n(CCC(C)C)c2=O)cc1[N+](=O)[O-]
 : 0.05, -1.01
- CC1=NN(c2ccccc2)C(=O)C1C(=O)c1cc([N+](=O)[O-])cc([N+](=O)[O-])c1 (configuration not stated)
 : 0.01, 0.28
- CCOC(=O)/C=C/C(=O)Nc1nccs1
 : 0.02, 1.09
- CC(C)(CO)CNC(=O)CCc1nnc(Cc2ccc(-c3ccccc3)cc2)o1
 : 0.5, 1.25
- C=CCNC(=S)N1CCN(c2ncc(C(F)(F)F)cc2Cl)CC1
 : 0.08, 1.74
- COc1ccc(-c2cc(C(=O)Nc3cccnc3)no2)cc1OC
 : 1.59, 0.57
- NC1=C([N+](=O)[O-])C(c2ccc(F)cc2)C2=C(CCCC2=O)O1 (configuration not stated)
 : 0.15, -0.1
- Cc1cc(C(=O)NCCN2CCCCC2C)n(-c2ccccc2)n1 (configuration not stated)
 : 1.95, 0.06
- COc1ccc(NC(=O)CN2CCCCCC2)cc1OC
 : 1.17, 1.16
- Cc1ccc(-n2c(Cl)c(Cl)[nH]c(=O)c2=O)cc1
 : 1.56, -0.77
- Cc1ccc(S(=O)(=O)CC(=O)Nc2nccs2)cc1
 : 0.1, -0.98
- O=C(CSc1nc(O)cc(=O)[nH]1)Nc1ccc2c(c1)CCC2
 : 2.11, -1.58
- COC(=O)CCc1nc2ccccc2[nH]c1=O
 : 1.47, -0.42
- O=S(=O)(c1ccc(F)cc1)n1cnc2ccccc21
 : 2.17, 0.45
- C(=N\Nc1nc2ccccc2s1)/c1ccccn1
 : 11.4*, -1.39*
- CCN1C(=O)[C@H]2[C@@H](c3ccc(C)cc3)N3C(=O)N(c4ccc(C)cc4)C(=O)[C@@]3(CC)[C@H]2C1=O
 : 0.06, -0.01
- Cc1sc2ncnc(N/N=C/c3cccc(O)c3)c2c1C
 : 0.15, 2.53
- COc1cccc(CNC(=O)CSC(=S)N2CCCC2)c1
 : 1.05, -0.49
- COc1ccc(/C=N/NC(=O)c2nc(-c3ccccc3)n(-c3ccccc3)n2)cc1OC
 : 0.98, -0.34
- CCn1c(SCC(=O)Nc2nonc2C)nnc1-c1ccco1
 : 0.41, 1.89
- O=[N+]([O-])c1ccc(/C=N/Nc2nc(NCc3ccccc3)nc(N3CCOCC3)n2)cc1
 : 2.12, -0.06
- CCN(Cc1ccncc1)C(=O)CCc1nnc(CCc2ccccc2OC)o1
 : 1.17, -0.36
- CN(Cc1cccnc1)Cc1cn[nH]c1-c1ccc(-c2ccccc2)cc1
 : 0.15, -2.29
- O=C(COC(=O)/C=C/c1cccs1)Nc1ccc2ccccc2c1
 : 0.2, -2.27
- COc1ccccc1N1CCN(C(=O)CSc2nnc3c4ccccc4n(CC(=O)O)c3n2)CC1
 : 0.48, -0.01
- COCCNC(=S)N(CCc1c(C)[nH]c2ccc(Cl)cc12)Cc1cccnc1
 : 1.46, 1.56
- O=C(Cn1nnc2ccccc2c1=O)NCCc1ccccc1
 : 0.02, 0.34
- N#CC1=C(N)OC2=C(C(=O)CCC2)C12C(=O)N1CCCc3cccc2c31 (configuration not stated)
 : 0.66, -0.42
- CN(C)S(=O)(=O)c1ccc(C(=O)Nc2nc3ccccc3[nH]2)cc1
 : 0.4, 1.35
- CN(C(=O)CSc1nnc(CN2CCCC2)n1Cc1ccccc1)c1ccccc1
 : 0.32, -0.12
- COCCCNc1nc2c(-c3cccc(C)c3)nnn2c2ccccc12
 : 2.2, -1.06
- COc1ccc(C(C)=O)cc1COC(=O)CNC(=O)c1ccc(Cl)cc1
 : 1.02, 2.17
- O=C(CN(C(=O)CNC(=O)c1cccs1)c1ccccc1F)NC1CCCC1
 : 0.05, -1.3
- COC(=O)N1CCCc2cc(C)ccc21
 : 1.27, -0.8
- COc1cccc(C2CC(c3ccccc3)Nc3ncnn32)c1 (configuration not stated)
 : 1.09, -2.53
- Cc1cc(NC(=O)COn2nnc3ccc(S(C)(=O)=O)cc32)ccc1Br
 : 0.17, 0.93
- O=[N+]([O-])c1ccc(O)c(Nc2c([N+](=O)[O-])ccc3nonc23)c1
 : 0.17, 0
- CC(C)CNC(=O)C1CCN(Cc2ccc(OCc3ccccc3)cc2)CC1
 : 0.05, -0.81
- CC(C)c1nc(SCC(=O)Nc2nc3c(s2)CCCC3)c2ccccc2n1
 : 3.09, 0.11
- COc1ccccc1C(=O)NNC(=O)c1ccc(C)cc1
 : 3.72, -3.13

Taken from above.
`O=[N+]([O-])c1ccc(O)c(Nc2c([N+](=O)[O-])ccc3nonc23)c1` – KCNQ2 pot: 0.17
`O=C(CSc1nc(O)cc(=O)[nH]1)Nc1ccc2c(c1)CCC2` – KCNQ2 pot baseline: -1.58

Next results follow:
Fields: KCNQ2 pot, KCNQ2 pot baseline
- Cn1c(SCC(=O)N2CCCCCC2)nc2c(c1=O)SCC2
 : 0.68, -0.45
- COc1ccc(CC(O)CC2c3c(cc4c(c3OC)OCO4)CCN2C)cc1 (configuration not stated)
 : 0.95, 0.66
- CC#CCCC(=O)N1C=Cc2ccccc2C1C#N (configuration not stated)
 : 0.76, -0.3
- CN(NC1OC(=O)c2ccccc21)c1ncc(Cl)cc1C(F)(F)F (configuration not stated)
 : 1.58, -2.11
- O=[N+]([O-])c1ccc2nc(-c3ccccc3)oc2c1
 : 1.88, -2.19
- CN(CC(=O)Nc1ccc2c(c1)OCCO2)S(=O)(=O)c1ccc(Br)s1
 : 0.48, 0.01
- Cc1cc(C)n2ncc(C(=O)O)c2n1
 : 0.5, 0.06
- O=S(=O)(NCC(c1ccco1)N1CCN(c2ccccc2)CC1)c1ccc(F)cc1 (configuration not stated)
 : 0.56, -0.55
- CCOC(=O)N1CCN(C(=O)c2cc3c(=O)n4ccccc4nc3s2)CC1
 : 0.53, 0.54
- CCN(CC)S(=O)(=O)c1ccc(OC)c(NC(=O)CCS(=O)(=O)Cc2ccccc2)c1
 : 0.57, 0.48
- O=c1[nH]cnc2sc3c(c12)CCCC3
 : 1.92, -3.68
- Cc1cc(NC(=O)CSc2nnc(-c3ccccc3)c(-c3ccccc3)n2)no1
 : 1.13, 0.54
- Cc1ccc(S(=O)(=O)N(C)C)cc1NC(=O)c1cncc(Br)c1
 : 0.1, -1.12
- O=C1CSc2ccc(S(=O)(=O)CCC(=O)NC3CCCCC3)cc2N1
 : 1.15, 0.13
- CN(C)c1nc(N(C)C)n(C(=O)c2ccc(F)cc2)n1
 : 0.33, 0.11
- COc1ccc(/C(O)=C2/C(=O)C(=O)N(Cc3cccnc3)C2c2ccncc2)cc1F (configuration not stated)
 : 0.07, -1.44
- COc1cccc(Nc2nc3ccccc3n2C(C)C)c1
 : 0.55, 3.18
- O=C(CSc1nc(NS(=O)(=O)c2ccccc2)cc(=O)[nH]1)Nc1ccc(F)cc1
 : 3.82, -1.41
- CN(Cc1nc2ccccc2[nH]1)C(=O)C1CCC(=O)N(C2CCCC2)C1 (configuration not stated)
 : 1.58, -0.02
- Cc1ccc(C(=O)OCC(=O)c2c(N)n(C)c(=O)n(C)c2=O)cc1S(=O)(=O)N1CCCCC1
 : 1.45, 0.67
- Cc1c(NC(=O)/C(C#N)=C\c2cccs2)c(=O)n(-c2ccccc2)n1C
 : 0.72, -0.94
- O=C(COc1cc2oc(=O)cc(-c3ccccc3)c2cc1Cl)NCc1ccccn1
 : 1.14, 0.03
- Cc1ccc(S(=O)(=O)NC2CCCC(C(=O)O)C2)cc1 (configuration not stated)
 : 0.09, -1.27
- COc1ccc(-c2noc(CN(C(=O)c3ccoc3C)C(C)C)n2)cc1
 : 0.41, 1.06
- O=C(O)CSc1nnc(NC(=O)CN2CCOCC2)s1
 : 0.27, 0.78
- C#CCOCCOCCOCCNc1nc(N2CCN(C(=O)[C@H](CCC(=O)O)n3cc(C(N)Cc4ccc(O)cc4)nn3)CC2)nc(N2CCN(C(=O)[C@H](CCCCN)n3cc(C(N)[C@H](C)CC)nn3)CC2)n1 (some centres not stated)
 : 0.05, 0.21
- O=C(Cn1cnc2cc([N+](=O)[O-])ccc2c1=O)NCc1ccc(Cl)cc1
 : 0.54, -3.18

Screening data: PubChem, Johns Hopkins Ion Channel Center
